Bioassay records from PubChem.
Sa ugtP lethal – kills S. aureus RN4220 lacking UgtP | S. aureus RN4220 ugtP deletion, OD600 growth, 16 h; some inactives read as strong as hits | growth inhibition, % (concentration not given with the values) | 330,000 tested, 0.54% active | AID 1259309;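 active = z-score under -3 and OD600 up to 0.15 on both plates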;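 note: plate controls were untreated wells for no effect and antibiotic for full effect; wells of about 80 µL received 100 nL stock; the first replicate is given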
Autofluor counter – compound fluorescence in toxin protease inhibitor counterscreen; fluorescence intensity (test concentration not listed); 360,000 tested, 3.1% active; AID 624483; compound autofluorescence counterscreen, microsphere flow cytometry; stronger effect = higher value;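 active = at least 3 SD above the mean of all compounds, about 16000 in these data; inconclusive = too few beads counted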;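 note: 100 nL of 1 mM stock went into each well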
Mtb hypoxia rep – Mtb hypoxia fluorescent reporter inhibition | M. tuberculosis hypoxia-regulated fluorescent reporter, fluorescence | fluorescence inhibition, % (concentration not given with the values) | 300,000 tested, 0.1% active | AID 1159583;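 active = 35 to 45% if threefold the growth effect, above 45% if 1.5-fold the growth effect; inactive = the rest, general growth blockers included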;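 note: wells of about 50 µL received 100 nL stock; 0% = vehicle wells and 100% = reference inhibitor wells; whole bacteria with a GFP reporter of the hypoxia response; strong numbers were not always called active; many hits fall short of the cut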
PrP UTR inh – inhibition of PrP 5' UTR reporter expression; inhibition, % (no concentration beside the values); 340,000 tested, 0.35% active; AID 488862; cell-based PrP 5' UTR mRNA reporter, plate reader;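 active = every replicate at 50% or more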;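 note: 0 = median of the neutral control wells; tested in H4 reporter cells; numbers are from one replicate; inactives centre near -14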
BJeLR lethal – BJeLR cell viability loss | BJeLR (HRASV12) viability, CellTiter-Glo ATP luminescence, 48 h; reference of the scale not given here | inhibition, % (concentration not given with the values) | 300,000 tested, 0.17% active;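 active = replicate mean above 50%; inconclusive = above 50% but judged a plate artefact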;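 note: 50 nL library stock added to about 25 µL; numbers are from one replicate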
RN4220 kill – kills Staphylococcus aureus RN4220 | S. aureus RN4220 growth, OD600, 16 h | inhibition, % (test concentration not listed) | 330,000 tested, 0.33% active | AID 1259311;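 active = z-score of -3 or lower and OD600 up to 0.18 on both plates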;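 note: plate controls were untreated cells for no effect and reference antibiotic for full effect; stock transfer was 100 nL into about 80 µL; one replicate is shown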
Mtb hypoxia rep growth – further read-out of Mtb hypoxia rep, marked with its call; growth inhibition, %; measured here: M. tuberculosis growth (absorbance);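 0% = vehicle and 100% = reference antibiotic; read after six days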
An asterisk follows results filed as active; ? = inconclusive; nt = not tested or not shown. Not a hit list (roughly 3.9% active in at least one column).

SMILES	Sa ugtP lethal	Autofluor counter	Mtb hypoxia rep	Mtb hypoxia rep growth	PrP UTR inh	BJeLR lethal	RN4220 kill
CC1/C(=N/O)CC(c2ccccc2)N(C)C1c1ccccc1 (configuration not stated)	nt	5753	nt	nt	-17.9	-14.5	nt
CN1C(=O)/C(=C/c2ccccc2OCc2ccc(F)cc2)N(C)C1=S	3.8	7560	0.0	0.1	-14.8	-14.3	-1.3
O=C(/C=C/c1cccnc1)c1ccc(F)c(F)c1	0.7	3340	5.2	0.6	14.2	2.0	6.4
CCOC(=O)N1CCC(N(CCCOC)C(=O)Nc2ccc(CC)cc2)CC1	0.2	6823	3.2	6.5	-22.3	4.6	-0.9
N#C/C(=C(/O)COc1ccc(Cl)cc1)c1nc2ccccc2s1	nt	3592	nt	nt	-20.4	9.1	nt
Cc1ccc(CNC(=O)c2oc3ccc(S(=O)(=O)N4CCC5(CC4)OCCO5)cc3c2C)cc1	-5.9	8536	-0.3	7.6	-12.3	0.5	-0.4
CCn1c(SCC(=O)N(C)CC(=O)Nc2ccc(OC)cc2)nnc1-c1ccco1	-2.5	?	-0.3	8.3	-27.6	-5.0	-1.9
Cc1c(CN2CCCCC2C)c(=O)n(-c2ccccc2)n1C (configuration not stated)	11.6	22027*	1.9	3.7	-0.5	-8.8	6.4
COC(=O)c1ccc(CN2CCN(C3CCCCC3)C(CCO)C2)cc1 (configuration not stated)	nt	6500	nt	nt	-2.5	12.7	nt
Cc1ccc(NC(=S)N2CCSC2c2cccs2)cc1 (configuration not stated)	3.7	3454	-4.1	5.2	-15.0	7.2	9.1
Cc1ccc(C(=O)Nc2nccs2)cc1S(=O)(=O)N1CCCCC1	4.4	?	9.2	10.5	-13.0	0.2	12.3
CSc1nccc(NN=Cc2ccccc2)n1	0.5	nt	1.7	-0.6	nt	nt	-1.7
Cc1ccc(/C=N/NC(=O)c2cc(C3CC3)nc3ccccc23)o1	nt	2676	nt	nt	-37.2	-5.8	nt
COc1ccc(Oc2cc(NN3CCCCC3)c([N+](=O)[O-])cc2[N+](=O)[O-])cc1OC	9.6	3732	19.4	10.0	-28.7	-6.5	3.5
O=C(Cn1cnc2ccccc2c1=O)N/N=C/c1ccc(Br)cc1	nt	3692	nt	nt	-14.4	-8.5	nt
O=C(CSCc1ccccc1)NN=Cc1ccc(OCC(=O)N2CCCCC2)cc1	-0.6	nt	1.8	0.6	nt	nt	4.8
COc1ccc(CNC(=S)NN=C(C)c2ccccc2)cc1	-3.5	nt	2.5	3.5	nt	nt	4.4
CC(C)(C)c1ccc(/C=C/C(=O)Nc2nncs2)cc1	6.4	2129	-2.4	0.0	-63.3	-14.0	4.4
CCNc1nc2c(c(=O)n(C)c(=O)n2C)n1Cc1ccc(Cl)cc1	0.3	5949	-0.7	3.3	-14.5	19.1	-1.8
O=C(NCCCCc1ccccc1)C1CC(c2cccc([N+](=O)[O-])c2)=NO1 (configuration not stated)	4.9	3991	4.2	1.2	-13.2	3.7	4.9
CNS(=O)(=O)c1cc(NC(=O)CCCNC(=O)c2ccc(Cl)cc2)ccc1C	5.5	3524	0.3	-2.8	-22.2	-8.8	2.6
O=C(Nc1cccc(C(F)(F)F)c1)c1n[nH]c(Cn2cncn2)n1	-1.5	?	0.6	-6.9	-2.4	-2.8	-1.8
COc1ccc(S(=O)(=O)N2CCC(C(=O)NCc3ccco3)CC2)cc1C	9.8	3589	14.6	7.1	-25.4	1.8	1.9
Cc1cc(C)nc(N(C#N)Cc2ccc(Br)cc2)n1	2.3	8250	12.1	1.0	-22.1	-1.4	5.8
Cc1cc(=O)[nH]c(SCC2COC3(CCCCC3)O2)n1 (configuration not stated)	-7.3	10602	-3.3	1.7	-8.8	6.8	-2.9
O=C(Nc1cc(C(F)(F)F)ccc1Cl)c1cc2nc3c(c(C(F)(F)F)n2n1)CCCC3	-0.5	4258	nt	nt	-51.0	2.4	-4.5
CC(C)(C)c1ccc(NC(=S)NCCc2ccccn2)cc1	-4.9	6239	2.1	13.9	-13.6	6.3	1.9
Cc1ccc(OCC(=O)O/N=C(\N)Cc2cccs2)cc1C	3.4	2381	nt	nt	-36.9	1.3	4.8
CN(C)c1ccc(C=NNC(=O)c2ccc(Cn3cc(Br)cn3)o2)cc1	-6.0	nt	-11.5	-1.0	nt	nt	-1.0
CCOc1cc(C=NNC(=O)c2c(C)nc3ccccn23)ccc1O	8.5	nt	16.4	12.3	nt	nt	0.6

Reformatted in markdown: part of the list above
| Compound | Sa ugtP lethal | Autofluor counter | Mtb hypoxia rep | Mtb hypoxia rep growth | PrP UTR inh | BJeLR lethal | RN4220 kill |
| --- | --- | --- | --- | --- | --- | --- | --- |
| O=C(Nc1cccc(C(F)(F)F)c1)c1n[nH]c(Cn2cncn2)n1 | -1.5 | ? | 0.6 | -6.9 | -2.4 | -2.8 | -1.8 |
| CCOc1cc(C=NNC(=O)c2c(C)nc3ccccn23)ccc1O | 8.5 | nt | 16.4 | 12.3 | nt | nt | 0.6 |
| CN(C)c1ccc(C=NNC(=O)c2ccc(Cn3cc(Br)cn3)o2)cc1 | -6.0 | nt | -11.5 | -1.0 | nt | nt | -1.0 |
| Cc1ccc(OCC(=O)O/N=C(\N)Cc2cccs2)cc1C | 3.4 | 2381 | nt | nt | -36.9 | 1.3 | 4.8 |
| CC(C)(C)c1ccc(NC(=S)NCCc2ccccn2)cc1 | -4.9 | 6239 | 2.1 | 13.9 | -13.6 | 6.3 | 1.9 |

(continued)
SMILES	Sa ugtP lethal	Autofluor counter	Mtb hypoxia rep	Mtb hypoxia rep growth	PrP UTR inh	BJeLR lethal	RN4220 kill
CN(C)/C=C(/C(=O)c1ccc(Cl)cc1Cl)S(=O)(=O)c1ccccc1	7.3	9369	5.7	6.7	-23.2	-1.9	14.4
O=C(Nc1ccccc1)OC(CN1CCCCC1)C(F)(F)F (configuration not stated)	-5.0	3619	nt	nt	-16.4	2.0	-2.0
Cc1cccc(NC(=O)CSc2nnc(-c3cc(C)[nH]n3)n2N)c1	-1.5	5222	7.8	1.0	-1.4	-7.3	2.7
CC(C)OP(=O)(OC(C)C)C(O)c1ccc(N(C)C)cc1 (configuration not stated)	2.2	5375	-7.3	0.2	-12.7	3.3	3.8
COc1ccc(N2CCN(C(=O)c3cccs3)CC2)cc1	6.2	3577	8.2	10.0	-33.4	-4.7	1.6
COc1ccc2c(C(=O)NCc3ccc4c(c3)OCO4)c(-c3ccc(S(C)(=O)=O)cc3)sc2c1	6.8	2879	-10.5	6.3	-1.8	nt	9.6
O=C(NCc1ccccc1)C1CC2CCCC(C1)C2=O (configuration not stated)	-9.4	17138*	-26.0	1.7	-12.3	7.8	-6.6
Cn1c(CCc2ccccc2)nnc1SCC(N)=O	5.6	nt	10.4	7.0	1.2	-5.7	4.9
CC(C)S(=O)(=O)c1csc(NC(=O)Nc2cc(Cl)ccc2Cl)c1Cl	-18.2	5788	8.6	-2.5	-15.3	-8.2	-0.3
CCCC(CCC(=O)NC1CCCCC1)C(=O)O (configuration not stated)	-6.1	9689	13.4	8.8	-1.6	-5.7	4.5
O=C(CCc1nc(-c2ccccc2)c(-c2ccccc2)o1)OCc1ccc(Br)cc1	50.2	8578	9.4	9.2	0.5	4.6	-0.1
COc1ccc(CCNC(=O)c2ccc3c(c2)N(Cc2ccc(F)cc2)CCS3)cc1OC	nt	4118	nt	nt	-17.9	-5.0	nt
CC(=O)Nc1ccc(NC(=O)CCC(=O)OCC(=O)c2ccc(C)c([N+](=O)[O-])c2)cc1	9.2	4364	3.5	2.7	-4.9	-5.6	7.5
O=C1CSC(c2nn(-c3ccccc3)cc2-c2cc3ccccc3oc2=O)N1Cc1ccco1 (configuration not stated)	8.5	7015	-6.3	-7.7	-13.4	5.1	1.7
CC(C)c1c(C(=O)N/N=C/c2ccc(OCc3ccc(F)cc3)cc2)nnn1-c1nonc1N	nt	5489	nt	nt	-13.5	1.7	nt
O=C(Nc1ccc(Cl)c([N+](=O)[O-])c1)ONC1=NCCCCC1	-1.5	4293	-0.5	5.7	-12.8	4.2	-5.3
C=CCc1cc(Cl)ccc1OCCN1CC(C)OC(C)C1 (configuration not stated)	2.3	4020	14.0	8.5	-49.5	2.3	24.1
CC(=O)Nc1ccc(NS(=O)(=O)c2ccc(C)cc2)c([N+](=O)[O-])c1	5.5	3267	-6.1	-2.0	-17.9	8.8	4.6
CN1CCN(c2ccc(NC(=O)c3ccc4c(c3)OCCO4)cc2)CC1	2.6	2159	-1.5	11.5	-65.6	2.2	0.8
COc1c(Cl)cc(Cl)cc1/C=C/C(=O)c1ccc(NC(=O)c2cccs2)cc1	3.1	2560	-0.5	5.6	-29.1	-18.2	7.6
CN(CCCC(=O)NCc1ccco1)S(=O)(=O)c1ccccc1	1.9	10896	2.4	4.6	10.0	-7.4	2.9
CCOc1cc(C(=S)N2CCCCC2)ccc1OCC(=O)NCc1ccccc1	1.6	22179*	3.7	6.4	-1.7	3.1	3.5
CCN(CC)C(=O)CSc1nnc(-c2ccccc2)n1N	0.9	21307*	3.8	7.2	-19.4	3.7	3.6
COc1ccc(C)cc1N(C(=O)c1ccc(F)cc1)c1nc2ccccc2s1	86.2	2747	4.5	8.7	-5.9	-1.7	-3.8
CC1CC(C)CN(C(=O)Cn2cc(C=O)c3ccccc32)C1 (configuration not stated)	4.9	3361	11.0	2.0	-6.0	6.3	-1.2
CC(=O)Nc1ccc(NC(=O)C(C)Sc2nnc(-c3cccs3)o2)cc1 (configuration not stated)	-1.2	4846	-3.6	-2.2	-12.8	8.6	3.5
CCc1ccc(CNC(=O)C2CC(=O)N(CCc3ccc(C)cc3)C2)cc1 (configuration not stated)	1.3	8170	-1.4	0.9	-23.4	3.2	-3.5
Cc1ccc2nc(Cl)c(C3CC(c4cccs4)=NN3S(C)(=O)=O)cc2c1 (configuration not stated)	8.7	3218	12.7	11.1	-6.2	0.5	-2.0
O=S(=O)(c1ccc(F)cc1)N1CCN=C1SCc1cccnc1	5.1	3263	-1.6	-7.9	-20.7	-0.7	5.6
CCOC(=O)Nc1ccc(S(=O)(=O)Nn2cnnc2)cc1	2.2	10765	-0.8	-8.2	-22.5	-0.9	3.5
COC(=O)C1C(=O)NCC1c1ccccc1 (configuration not stated)	9.8	3217	1.2	6.5	-7.8	-0.6	6.4
Cc1cc(C)nc(N=C(N)N2CCCCC2)n1	-0.3	nt	-3.4	-3.3	nt	nt	-0.4
CSc1ccccc1C(=O)C1CCCN(Cc2ccncc2)C1 (configuration not stated)	6.8	5086	7.9	14.0	-3.9	14.6	2.3
CC1CN(C(=S)SCC(=O)c2ccc(Cl)cc2)CC(C)O1 (configuration not stated)	0.4	2622	12.0	8.3	-22.5	-5.7	3.7
CCOP(=O)(Cc1ccccc1)OCC	-2.8	2813	13.3	5.4	-10.5	8.8	5.9
COc1cc2[nH]c(=S)n(-c3ccccc3)c(=O)c2cc1OC	10.8	2671	4.7	-2.7	-18.6	5.5	0.3
O=C(NC(=O)N1CCN(c2ccc(F)cc2)CC1)c1ccccc1	4.2	8177	5.6	3.2	-11.5	-3.6	1.5
COc1cc(S(=O)(=O)N(C)C)ccc1Br	5.7	10062	6.0	5.0	-7.2	nt	3.9
Cc1ccccc1-n1nnnc1SCC(=O)NCC1CCCO1 (configuration not stated)	2.8	4369	6.3	5.2	-15.0	-5.8	7.8
COc1ccc(C2C3C(=O)N(C(C)(C)C)C(=O)C3[C@]3(C)C(=O)N(c4cccc(Cl)c4)C(=O)N23)cc1 (some centres not stated)	-9.8	nt	13.7	6.7	nt	nt	6.0
COc1ccc(NC(=O)CC(C)=NNC(=O)c2cnccn2)c(OC)c1	6.5	nt	1.4	-1.8	nt	nt	0.5
C(=NN1CCN(Cc2ccccc2)CC1)c1ccccc1	4.3	nt	14.4	11.7	nt	nt	7.2
CC(=O)c1ccc(-n2nncc2-c2ccc([N+](=O)[O-])cc2)cc1	6.0	3241	1.5	7.6	-14.0	3.2	13.0
Cn1c(CN2CCN(C(=O)COc3ccccc3)CC2)nc2cc([N+](=O)[O-])ccc21	1.4	2209	-6.7	-7.4	-11.1	-12.5	-1.5
COc1ccccc1C1CC(=O)NC(C)=C1C(=O)OC(C)C (configuration not stated)	-1.6	4551	12.9	3.4	-6.0	5.5	4.6
CCOc1ccc(C(c2c(C)[nH][nH]c2=O)c2c(C)[nH][nH]c2=O)cc1OC	5.2	2215	nt	nt	-10.1	-7.8	2.3
